PINK1 modulator = PINK1 expression modulation. Potency, µM (top dose mostly 76.6 µM), inactives show at the highest dose activation (PINK1 increase), hits mostly activators. actives 0.2% (n = 410,000). AID 624263. PINK1 immunofluorescence, high-content cytometry, 24 h; active = well fitted activation curve with a large enough effect; inconclusive = small, poorly fitted or top-dose-only effect; inactive = flat fitted curve, though single readings scatter; cell line not stated here;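 also: potency is read from the fitted curve at half-maximal effect; % of control where 0% means no effect; nearly all actives have a fitted effect of over 65% in size; a mitochondrial uncoupler was the plate control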
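Stable cell line treated 24 h with compounds at 5 concentrations (CCCP controls), then fixed and immunostained for PINK1 plus nuclear and cell stains; PINK1 immunofluorescence quantified by laser-scanning microplate cytometry.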
CtBP-E1A blk = blocks the CtBP interaction with E1A; activity change, % (concentration not given with the values); AID 651724; AlphaScreen GST-E1A/His-CtBP binding, 1536-well; hits give low values; control for the full effect not named in the record; actives 0.49% (n = 340,000); in the data active means activity change below about -65%; inconclusive means about -30% to -65%; inactive means above about -30%; also: % is scaled to controls: 0 for no effect and ±100 for the full control effect
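Homogeneous bead-based format: GST-tagged E1A captured on glutathione donor beads, His-tagged CtBP on nickel acceptor beads; compounds precede bead addition by 2 h at 37 °C.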
TRPML1 agonist = activates the human TRPML1 channel. TRPML1-expressing cells, Ca2+ dye fluorescence, FDSS; host cell line not named in the record; reference of the full effect not given here. activation, % (concentration not given with the values). actives 0.12% (n = 410,000); in the data active = activation above about 50%; inconclusive = about 30% to 50%; inactive = below about 30%; also: 0% is about no effect; the text of the record puts the active cut at 80%
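Cells: TRPML1-DL, 1X Tet inducer, ~16 h at 37 degrees C/5% CO2. Dye: ABD Ca8 no-wash + quencher, 45-90 min RT. Read: 10 s baseline, compound add, 110 s agonist phase; 54-4 EC80 (4uM final), 110 s antagonist phase.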
TRPML1 inh = inhibitors of human TRPML1 channel; TRPML1-inducible cells, Ca2+ dye fluorescence, FDSS; hits give low values; inhibition of EC80 agonist-evoked calcium signal; actives 0.02% (n = 390,000); AID 624415; Q9GZU1; activity change, negative = inhibition, % (no concentration beside the values); in the data active means activity change below about -50%; inconclusive means about -30% to -50%; inactive means above about -30%;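 also: stimulus is agonist 54-4 at its EC80 concentration; % is scaled to controls: 0 for no effect and ±100 for the full control effect; compound concentration not given in the record; the text of the record puts the active cut at -80%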
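Calcium fluorescence in TRPML1-DL cells induced overnight with Tet: a 110 s read after compound pin addition, then a 110 s antagonist read after challenge with 54-4 at 4 uM final (EC80).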
Six1-Eya2 inh = Six1/Eya2 interaction inhibition; Q15475+O00167; AlphaScreen GST-Six1/His-Eya2 binding, biochemical; hits give low values; control for the full effect not named in the record; activity change, % (test concentration not listed); actives 0.56% (n = 360,000); AID 651725; in the data active = activity change below about -65%; inconclusive = about -30% to -65%; inactive = above about -30%; also: % is scaled to controls: 0 for no effect and ±100 for the full control effect; compound concentration not given in the record
Target sequence (O00167 whole entry, looked up): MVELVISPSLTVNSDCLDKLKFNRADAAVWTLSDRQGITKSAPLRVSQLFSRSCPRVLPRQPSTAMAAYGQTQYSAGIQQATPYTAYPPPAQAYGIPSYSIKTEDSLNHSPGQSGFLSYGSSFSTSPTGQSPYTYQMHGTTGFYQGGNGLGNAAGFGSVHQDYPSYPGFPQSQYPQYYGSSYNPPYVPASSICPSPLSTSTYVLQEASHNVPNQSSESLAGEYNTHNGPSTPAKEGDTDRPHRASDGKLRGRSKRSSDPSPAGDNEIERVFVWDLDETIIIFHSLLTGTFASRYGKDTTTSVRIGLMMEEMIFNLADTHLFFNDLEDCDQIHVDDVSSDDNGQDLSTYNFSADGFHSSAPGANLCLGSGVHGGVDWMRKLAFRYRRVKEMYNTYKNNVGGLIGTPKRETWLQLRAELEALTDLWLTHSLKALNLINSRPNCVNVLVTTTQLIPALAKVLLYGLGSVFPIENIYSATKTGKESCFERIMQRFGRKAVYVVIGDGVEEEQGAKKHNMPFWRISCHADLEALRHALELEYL
Target sequence (Q15475 whole entry, looked up): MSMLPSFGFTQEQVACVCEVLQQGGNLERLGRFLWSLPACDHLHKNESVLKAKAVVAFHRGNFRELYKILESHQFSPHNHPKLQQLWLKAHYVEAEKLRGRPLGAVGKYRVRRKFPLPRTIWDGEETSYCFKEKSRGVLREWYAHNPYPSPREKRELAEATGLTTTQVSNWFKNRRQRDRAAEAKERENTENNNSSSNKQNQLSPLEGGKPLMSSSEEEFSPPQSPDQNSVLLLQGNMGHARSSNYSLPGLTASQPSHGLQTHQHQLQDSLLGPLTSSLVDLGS
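AlphaScreen with GST-Six1 and His-Eya2 (5X mix: 250 nM and 500 nM), glutathione donor and nickel acceptor beads; buffer 50 mM Tris pH 8.0, 300 mM NaCl, 1 mM TCEP; 1 h at 37 C in the dark.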
D2 agonist = human D2 receptor agonism in beta-arrestin assay | P14416 | actives 0.084% (n = 360,000) | activation, % (concentration not given with the values) | DiscoveRx PathHunter D2 beta-arrestin, luminescence, 90 min; 100% = 57 uM dopamine signal; in the data active = activation above about 40%; inconclusive = about 15% to 40%; inactive = below about 15%; also: compound concentration not given in the record; the text of the record calls up to 30% inactive
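DiscoveRx PathHunter D2 beta-arrestin cells (2,100/well) attached overnight, then compound-stimulated 90 min at 37 C in HBSS/10 mM HEPES/0.1% Tween-20 buffer; beta-galactosidase complementation read by luminescence after 1 h at ambient temperature. Dopamine 57 uM final (EC100) as control.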
Active calls of the source: *; ? = inconclusive; nt = not tested or not shown; [ ] = another dose, or the depositor's remark. The order is random. Share with any hit: about 1%.

Below each compound: PINK1 modulator, CtBP-E1A blk, TRPML1 agonist, TRPML1 inh, Six1-Eya2 inh, D2 agonist
- CCOc1ccccc1-c1c2cc(O)c(=O)cc-2oc2cc(O)c(O)cc12
    11%, 3, 110*, -8, ?, -13
- O=c1c(Cl)c(Nc2cccc(Cl)c2)cnn1-c1nc2ccccc2s1
    8.0%, 10, -0.2, -1, 2, -3.6
- O=C(CCN1CCCC1)c1cccs1
    0.9%, 11, 0.5, -9, 2, -3.5
- O=C(O)CC1(CC(=O)NCc2ccccn2)CCCCC1
    2.0%, nt, 2.3, 28, 3, 3.5
- O=C(c1ccc(Cl)s1)N1CCN(c2ncccn2)CC1
    1.2%, 3, 1.1, 8, -4, -5.2
- OC(c1cccc(Cl)c1)c1nc(-c2ccc3c(c2)OCO3)cs1 (centres undefined)
    2.9%, -6, -0.1, 4, -7, -1.4
- Cc1cccc(Oc2ccc(NC(=O)C3=CC=CN4CCS(=O)(=O)N=C34)cc2)c1
    6.2%, -1, 1.1, 1, -1, -2.4
- CCCNC(=O)C12CCC(C)(C(=O)O1)C2(C)C (centres undefined)
    2.3%, -1, 0.9, -5, -3, -2.8
- Cc1cc(C(=O)Nc2cccnc2)no1
    11%[38.3 µM], 3, 0.7, -16, 2, -1.3
- Fc1ccc(Nc2nc(-c3ccc(F)cc3)c3c(n2)-c2ccccc2OC3)cc1
    -0.3%, nt, 2.3, -14, nt, nt
- O=C(O)C(Cc1c[nH]c2ccccc12)NS(=O)(=O)c1ccc2ccccc2c1 (centres undefined)
    2.5%, nt, -0.2, -10, -5, -2.9
- Cc1ccc(S(=O)(=O)N2CCN(C(=O)c3n[nH]c4ccccc34)CC2)cc1
    1.2%, -12, 2.4, 6, -30, 1.6
- COCCN(C(=O)COC(=O)C12CC3CC(CC(C3)C1)C2)c1c(N)n(Cc2ccccc2)c(=O)[nH]c1=O
    3.9%, -2, 0.2, -8, 1, 0.2
- S=C1NC[C@H](Cc2ccccc2)N1CC1CCN(CCCC2CCCC2)CC1
    5.0%, -10, -0.2, 23, -7, -1.3
- O=C(N/N=C/c1cn[nH]c1-c1ccccc1)c1ccco1
    0.5%, 0, 0.8, 13, -8, -0.1
- CCCS(=O)(=O)N1CCN(Cc2ccc3c(c2)c2ccccc2n3CC)CC1
    -1.3%, -19, 1.5, -10, -20, 0.0
- CN(C)CCN(C(=O)c1ccccc1Cl)c1nc2c(Cl)cccc2s1
    ?, ?, 0.8, 31, ?, -3.6
- COc1cc(/C=C2/C(=N)N3C=CSC3=NC2=O)ccc1OCCOc1ccc(NC(C)=O)cc1
    -0.4%, -9, 1.9, 24, -5, -6.1
- O=C(Nc1ccc([N+](=O)[O-])cn1)C1CC1
    -1.6%, 0, -0.4, -1, 4, 4.1
- CCN(CC)c1ccc(CC(=O)NC(C)Cc2ccccc2)cc1 (centres undefined)
    -0.5%, -14, -0.3, 25, -22, -3.7
- O=S(=O)(c1ccc(Cl)cc1)N1CCCC1c1nc2ccccc2s1 (centres undefined)
    -2.9%, -1, 1.4, 35, -16, -2.3
- CC1(NC(=O)Cc2csc(-c3ccc(Cl)cc3)n2)CCS(=O)(=O)C1 (centres undefined)
    0.8%, -5, 0.5, 9, -1, -0.8
- Cc1cccc(NC(c2ccccc2C)c2ccc3ccc(C)nc3c2O)n1 (centres undefined)
    9.9%, nt, -0.2, -9, nt, nt
- O=C(CCN1C(=O)c2ccccc2C1=O)Nc1ccccc1C(=O)N1CCOCC1
    2.9%, 11, -0.3, -10, 2, -0.7
- C=CCc1c(C)nc2c(C)cccc2c1SC(=N)N
    2.6%, 4, 0.3, 15, 1, -5.2
- COc1ccc(NC(=S)Nc2ccc(N(C)C(C)=O)cc2)cc1
    -1.2%, -14, -0.3, 5, 15, -3.4
- O=C(NC1CCCCC1)C(c1ccc(O)cc1)N(CC1CCCO1)C(=O)C1COc2ccccc2O1 (centres undefined)
    -0.9%, -4, -0.2, 21, -4, -1.3
- CCn1cc(C(=O)NCCCN2CCCC(C)C2)c(=O)c2cc(S(=O)(=O)N3CCOCC3)ccc21 (centres undefined)
    -0.7%, 0, -0.3, -9, 8, -2.6
- CCn1c(SCC(=O)Nc2ccccc2)nc2nc3c(cc2c1=O)COC(C)(C)C3
    3.2%, -5, 1.6, 0, -6, -0.8
- CC(C)(C)C(=O)CC(=O)Nc1ccc(Cl)c(N)c1
    nt, 10, -0.3, 5, 0, -2.5
- O=C(NCCc1c[nH]c2ccccc12)c1cccc(S(=O)(=O)Nc2ccccc2Cl)c1
    -1.0%, -27, -0.1, 0, ?, -2.8
- COc1ccc(C(=O)C[n+]2ccc(C)cc2)cc1
    2.3%, -5, 0.3, -18, -1, 0.2
- COCCNC(=S)N1CCN(Cc2cccc(OC)c2)CC1
    1.0%, 6, 3.6, 5, 5, 2.1
- CC1CCN(C(=O)Cn2cnc3c2c(=O)n(C)c(=O)n3C)c2ccccc2S1 (centres undefined)
    -0.1%, 4, 0.3, -6, 11, -6.2
- COCCCn1c(SCC(=O)Nc2cccc(C)n2)nnc1-c1ccco1
    -1.0%, 0, -0.5, -2, -4, -0.1
- CCN(CC)CCn1c2c(c(SCC(=O)Nc3ccc(C(C)C)cc3)nc1=O)CCCC2
    -2.9%, -17, 1.4, -5, 0, -1.6
- CCCn1c(N)c(C(=O)CSc2nc(C)cs2)c(=O)[nH]c1=O
    1.3%, -1, 0.0, -7, 2, -0.9
- COc1ccc(CC(NC(C)=O)C(=O)N2CCN(C(=O)Nc3ccc(Cl)cc3)CC2)cc1OC (centres undefined)
    -0.2%[38.3 µM], 0, 1.2, 22, -1, -0.3
- O=C1c2ccccc2S(=O)(=O)N1CC(O)Cn1c2ccccc2c2ccccc21 (centres undefined)
    4.8%, -2, 1.3, 14, -12, -1.8
- COc1ccc(S(=O)(=O)N2CCN(C(=O)COc3ccccc3)CC2)cc1
    3.2%, nt, 0.7, 15, 7, -4.3
- CC1(C(=O)NS(=O)(=O)c2cccc(C#N)c2)CCN1C(=O)C1(c2ccccc2)CC1 (centres undefined)
    3.7%, -2, -1.0, nt, 1, 2.4
- Cc1cc2c(=O)[nH]cnc2s1
    0.1%, 3, 0.1, 7, 6, -0.1
- Cc1ccc(S(=O)(=O)N2CCCCC2)cc1NC(=O)CSc1nncn1-c1ccccc1
    0.3%, -7, 0.4, 0, -3, 0.2
- CCCNC(=O)c1onc(CSc2ccncc2)c1C(=O)NCCC
    -1.0%, 2, -0.3, 9, 4, -1.1
- O=C(OC1CC2CC1[C@H]1CCCCN1C2=O)N1CCOCC1 (some centres undefined)
    0.5%, 9, 0.1, nt, -8, nt
- Cc1ccc(N(C)S(=O)(=O)c2nnc(NC(=O)C3CCCCC3)s2)cc1
    1.5%, nt, 1.3, -9, nt, nt
- CCOc1ccc(NC(=O)C2CC(=O)N(CCc3ccccc3)C2)cc1OC (centres undefined)
    -0.2%, 3, 5.2, 6, -8, -5.8
- CCOC(=O)N1CCN(C2CC(=O)N(c3ccc(C)cc3)C2=O)CC1 (centres undefined)
    0.4%, 8, -0.5, 4, 0, -2.5
- Cc1ccc(SCC(=O)Nc2ccc3oc(-c4ccccc4C)nc3c2)cc1
    5.1%, nt, 4.7, 8, nt, nt
- Cn1c(=O)[nH]c(=O)c2c1nc(NC1CCCC1)n2Cc1ccccc1
    0.2%, -3, 0.2, 3, -1, -5.4
- O=C(O)Cn1cnc2ccccc2c1=O
    nt, 0, 0.8, -7, 5, 1.9
- O=C(NCCCN1CCCCC1)c1ccc2c(c1)NC(=O)C(N1CCCCC1)S2 (centres undefined)
    -0.4%, -4, 0.0, 5, 6, -5.5
- Cc1cn2c(=O)c(S(=O)(=O)NCCc3ccccc3)c(C)nc2s1
    0.4%, nt, -0.9, 8, nt, nt
- CC(=O)COc1ccc(-c2csnn2)cc1
    -0.1%, 8, -1.0, 4, -11, -3.5
- COc1ccc(COc2cc(-c3cccc(OC)c3)nc3ccc(NC(=O)c4ccccc4)cc23)cc1
    11%, -2, 0.0, 39, -12, 6.3
- CCN(CC)CCNC(=O)C(C)c1nn(C)c(=O)c2ccccc12 (centres undefined)
    0.6%, 2, -0.5, 8, 7, -2.7
- COc1ccc(CN2CC[C@H]3C=CCc4cccc(c43)C2)cc1
    5.6%, -14, 1.5, 8, -22, 0.1
- COc1ccc(C(CNC(=O)c2cccc(NS(=O)(=O)c3ccccc3)c2)N2CCCC2)cc1 (centres undefined)
    2.7%, nt, -0.1, -1, -6, 1.9
- O=C(NC1CC1)c1cccc2c1C(=O)c1ccc(N3CCC(N4CCCCC4)CC3)cc1S2(=O)=O
    1.6%, 5, 7.3, 14, -1, -7.4
- CCc1nc2c(OCc3ccccc3C)cccn2c1N(C)C(=O)C(C)C
    1.2%, -4, -0.8, nt, 5, 1.9

New compounds follow.
Below each compound: PINK1 modulator, CtBP-E1A blk, TRPML1 agonist, TRPML1 inh, Six1-Eya2 inh, D2 agonist
- O=C(O)Cn1nc(C(F)(F)F)c2c1CCCCC2
    -1.6%, -11, 0.5, 9, 1, -0.3
- CCOc1ccc(S(=O)(=O)NCC(=O)OCc2nnc(-c3ccccc3)o2)cc1
    2.6%, nt, 0.2, -3, 1, -4.6
- O=C(CSc1nc(=O)n2ccccc2n1)NCCc1ccccc1
    -0.8%, -7, 0.4, -8, 7, -3.8
- COc1ccc(CCNC(=O)c2c(-c3ccccc3Cl)noc2C)cc1
    nt, 5, 0.6, -14, 4, 0.7
- COC(=O)[C@]1(CC(C)C)N[C@H](c2ccc(-c3ccc4c(c3)OCO4)cc2)[C@@H]2C(=O)N(C)C(=O)[C@@H]21
    -0.9%, 5, 0.4, 20, 0, -0.6
- Nc1ccc2c(c1)C(=O)N(c1cccc3ccccc13)C2=O
    -0.9%, 18, 2.2, 31, 17, 7.6
- Cc1ccc(S(=O)(=O)Nc2ccc3ncccc3c2[N+](=O)[O-])cc1
    -4.9%, 18, 0.6, -10, -19, -3.2
- CCN(CC)C(=O)c1cnn(-c2ccccc2)c1NC(=O)c1cccc(F)c1
    0.5%, 5, -0.8, -4, 6, 0.2
- O=c1c2cccnc2[nH]c(=S)n1Cc1ccccc1
    1.4%, 10, -0.4, -20, 4, -2.6
- Cc1ccc(C(=O)COC(=O)CNC(=O)c2cccs2)cc1
    0.3%, 3, 1.0, 5, 5, -2.1

Arranged by molecular weight (highest first): 5 of the compounds above
Below each compound: PINK1 modulator, CtBP-E1A blk, TRPML1 agonist, TRPML1 inh, Six1-Eya2 inh, D2 agonist
- COc1ccc(CCNC(=O)c2c(-c3ccccc3Cl)noc2C)cc1
    nt, 5, 0.6, -14, 4, 0.7
- O=C(CSc1nc(=O)n2ccccc2n1)NCCc1ccccc1
    -0.8%, -7, 0.4, -8, 7, -3.8
- Cc1ccc(C(=O)COC(=O)CNC(=O)c2cccs2)cc1
    0.3%, 3, 1.0, 5, 5, -2.1
- Nc1ccc2c(c1)C(=O)N(c1cccc3ccccc13)C2=O
    -0.9%, 18, 2.2, 31, 17, 7.6
- O=C(O)Cn1nc(C(F)(F)F)c2c1CCCCC2
    -1.6%, -11, 0.5, 9, 1, -0.3

Source: PubChem
